Assay outcomes: PubChem, several laboratories
Env fusion inh – inhibitors of HIV Env-mediated cell fusion; HeLa-JRFL Env/CEM21 cell fusion, luciferase; inhibition, % at 12.3 µM; actives 1.1% (n = 360,000);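 active means mean replicate inhibition score of at least 50 and every replicate individually at or above 50; inconclusive means only one of the two criteria met; inactive means mean below 50 and not all replicates reaching 50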;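 further: 0% = plate neutral controls and 100% = maraviroc near 300 nM; one replicate is shown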
Rce1 inhib – yeast Ras-converting enzyme inhibition; AID 2563; calls only; Q03530; actives 0.27% (n = 290,000); yeast membranes, quenched prenylated peptide cleavage fluorescence;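 active means fall in fluorescence gain of 50% or more versus controls, with final raw signal at or below 3038400; inconclusive means same 50% fall but final raw signal above 3038400; inactive means fall in fluorescence gain under 50%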;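 further: plate controls were neutral control wells for no effect and wells lacking membranes for full effect; tested at 10 µM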
Target sequence (Q03530 whole entry, looked up): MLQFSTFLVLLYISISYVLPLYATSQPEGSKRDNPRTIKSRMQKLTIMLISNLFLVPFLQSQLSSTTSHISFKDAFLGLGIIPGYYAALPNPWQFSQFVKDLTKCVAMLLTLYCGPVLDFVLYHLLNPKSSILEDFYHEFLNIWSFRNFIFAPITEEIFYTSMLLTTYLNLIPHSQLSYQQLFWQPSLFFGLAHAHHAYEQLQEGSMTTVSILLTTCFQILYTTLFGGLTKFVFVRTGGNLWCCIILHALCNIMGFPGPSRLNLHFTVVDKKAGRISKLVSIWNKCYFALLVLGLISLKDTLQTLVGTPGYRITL
eIF4H FP inh – inhibitors of RNA binding by human eIF4H. Q15056. eIF4H fluorescence polarization binding assay. AID 2012. actives 0.94% (n = 290,000). inhibition, % at 35 µM;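 active means 50% or more with normal probe brightness, or confirmed in later tests; inconclusive means above 50% with abnormal brightness, or retests that disagree; inactive means below 50% or failed in later tests; about a fifth of its hits are not listed in these tables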;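 further: calls also rest on retests at 20 µM and on dose response follow-up; 0% = protein and probe with vehicle and 100% = probe without protein; strong numbers were not always called active; many hits fall short of the cut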
UUG fidelity – yeast start codon fidelity modulation; S. cerevisiae UUG-firefly luciferase reporter, luminescence/redox ratio; activity score, % at 18.7 µM; actives 0.13% (n = 350,000);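 active means replicate mean at a twofold rise or more, about +100% in these data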;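 further: firefly luciferase made from a UUG start codon reports start codon fidelity; reporter light over untreated wells divided by growth signal over untreated wells; some hits fall short of that in this replicate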
CSC inhib – cancer stem cell inhibition | cancer stem cell-like cells viability, luminescence | inhibition, % at 7.5 µM | actives 1.1% (n = 300,000) | AID 2717;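 active means mean at 75% or more and at least half the replicates too; inconclusive means mean and replicates disagree; tested in HMLE shEcad cells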;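 further: 0% = median of negative and 100% = median of positive control wells; the first replicate is given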
MT1-MMP act inh – blocks activation of human MT1-MMP. GFP/RFP ratio change, % at 20 µM. AID 651647. actives 0.061% (n = 360,000). P50281. HT1080 RFP-PRO-GFP cells, GFP/RFP ratio fluorescence, overnight; percent of plate control window, DMSO zero;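 active means GFP/RFP ratio change of at least 30% with cell ATP level not reduced by more than half and red fluorescence within 50% of control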; further: strong numbers were not always called active
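system = RFP-PRO-GFP reporter HT1080 cells | dosing = 20 µM single dose, 1% DMSO | timing = overnight cell settling, then overnight compound exposure, 37 °C, 5% CO2 | read-out basis = GFP/RFP fluorescence ratio | controls = DMSO and RFP-L50D-GFP cell wells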
PABP FP inh – PABP-poly(A) binding inhibition. P11940. PABP-poly(A) RNA binding, fluorescence polarization. inhibition, % at 35 µM. actives 1% (n = 290,000). AID 2014;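 active means 50% or more with normal probe brightness, or confirmed in later tests; inconclusive means above 50% with abnormal brightness, or retests that disagree; inactive means below 50% or failed in later tests; about a fifth of its hits are not listed in these tables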;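 further: calls also rest on retests at 20 µM and on dose response follow-up; controls were probe without protein and protein plus probe with vehicle; some compounds called inactive have numbers as strong as hits; many hits fall short of the cut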
Target sequence (P11940 whole entry, looked up): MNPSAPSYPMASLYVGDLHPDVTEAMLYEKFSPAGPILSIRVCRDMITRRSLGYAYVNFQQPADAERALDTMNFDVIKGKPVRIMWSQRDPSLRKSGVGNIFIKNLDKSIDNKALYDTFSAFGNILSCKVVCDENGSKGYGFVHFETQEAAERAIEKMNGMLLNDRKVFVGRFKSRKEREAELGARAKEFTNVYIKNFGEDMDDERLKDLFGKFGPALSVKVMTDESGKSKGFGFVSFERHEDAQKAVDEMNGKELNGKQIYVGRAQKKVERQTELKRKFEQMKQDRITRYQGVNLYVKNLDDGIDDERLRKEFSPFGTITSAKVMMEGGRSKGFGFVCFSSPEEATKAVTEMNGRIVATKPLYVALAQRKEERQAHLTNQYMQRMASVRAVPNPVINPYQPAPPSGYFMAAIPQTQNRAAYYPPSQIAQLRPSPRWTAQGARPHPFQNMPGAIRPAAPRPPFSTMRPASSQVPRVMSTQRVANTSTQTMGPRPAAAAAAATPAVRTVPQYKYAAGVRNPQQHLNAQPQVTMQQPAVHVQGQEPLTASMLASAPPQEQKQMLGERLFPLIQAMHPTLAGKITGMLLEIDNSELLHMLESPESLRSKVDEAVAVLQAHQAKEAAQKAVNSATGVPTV
MT1-MMP act inh RFP – further read-out of MT1-MMP act inh, marked with its call; RFP signal change, %; measured here: RFP expression control read;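 0 = vehicle wells; hits needed this value within 50% of zero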
An asterisk follows results filed as active; i = inactive; ? = inconclusive; · = no result given. The list is partial. The share of hits here may be higher or lower than overall.

SMILES	Env fusion inh	Rce1 inhib	eIF4H FP inh	UUG fidelity	CSC inhib	MT1-MMP act inh	MT1-MMP act inh RFP	PABP FP inh
COC(=O)c1cc(=O)n(Cc2ccc3c(c2)OCO3)c(=Nc2ccccc2)s1	3.2	i	22.8	-6.6	59.4	2.1	-7.0	2.8
COc1ccccc1C(CNc1ncnc2sc(C)c(C)c12)N(C)C (centres undefined)	8.7	·	-2.4	-12.0	2.9	-0.2	2.0	-1.0
CCN(CC(=O)NC(=O)NCc1ccco1)Cc1ccccc1	-38.9	i	·	·	-6.7	-3.0	-0.2	·
Cc1c(C(=O)NC2CCS(=O)(=O)C2)oc2ccccc12 (centres undefined)	-13.5	i	-0.1	-17.9	0.8	2.8	2.4	4.7
Cc1ccc(S(=O)(=O)c2cc(C)cc(S(=O)(=O)Nc3ccc(C(=O)O)cc3)c2C)cc1	-4.6	i	-0.3	-5.2	·	2.1	1.3	20.7
O=C(Nc1cccc(NC(=O)c2cccnc2Cl)c1)c1ccco1	·	i	4.1	·	13.8	4.1	2.6	-1.0
O=C(NCc1ccc(F)cc1)Nc1cccc(Cl)c1	5.3	i	-12.7	·	23.2	2.5	-1.2	-7.3
O=C(CN1CCN(c2ccccc2)CC1)N/N=C/c1cccc(F)c1	-3.6	i	-3.4	·	-3.7	7.6	4.5	?
CCCCCc1ccc(-c2cn(Cc3ccc([N+](=O)[O-])cc3)nn2)cc1	·	i	11.2	8.6	11.1	4.0	-2.3	-7.8
CNc1ncnc2c1ncn2[C@H]1CN(C2CCCC2)C[C@@H](CO)O1	5.3	·	·	-20.2	·	-0.9	3.4	·
CC1Cc2ccccc2N1CC(=O)Nc1cccc(S(N)(=O)=O)c1 (centres undefined)	-1.7	i	2.2	-3.6	-13.0	7.4	6.5	-9.5
Cn1nccc1C(=O)N1CCc2c([nH]c3ccccc23)C1c1ccc(F)cc1 (centres undefined)	-8.7	i	-8.3	-6.4	4.0	-2.7	2.0	-12.6
Cc1ccc(CC2(C)C(=O)Nc3ccc(OC(F)(F)F)cc32)cc1 (centres undefined)	10.5	·	·	-21.0	·	-4.4	-3.1	·
CC1CCCCN1C(=O)CSc1nnc(-c2cccnc2)n1C1CCCCC1 (centres undefined)	-11.1	i	-1.1	-21.0	-4.9	-2.7	-2.1	7.0
CS(=O)(=O)N1CCN(C(=O)c2cc(-c3cccnc3)nc3ccc(Br)cc23)CC1	5.4	·	-3.0	-34.3	·	2.3	6.5	27.7
COC(=O)c1ccc(NC(=O)c2snnc2-c2ccccc2)cc1	0.3	i	-6.2	·	17.0	-1.0	0.6	4.7
CCOC(=O)c1c(C)n(C)c2ccc(O)c(CN3CCN(C)CC3)c12	·	·	6.1	·	-14.9	-2.3	1.3	8.4
COCC(C)n1c(C)cc(C(=O)COC(=O)c2ccc(N3CCCC3=O)cc2)c1C (centres undefined)	26.7	i	-7.4	2.5	-3.8	12.5	4.5	-8.1
O=C(C[C@@H]1C/C=C\C[C@H](Cc2ccc(F)cc2)C(=O)OCCNC1=O)NCCO	5.8	·	·	-7.3	-11.0	4.2	0.3	·
COc1cc(/C=C/c2nc(N)nc(-c3ccccc3O)n2)cc(OC)c1OC	7.8	i	-0.8	·	4.0	-7.0	-7.5	0.7

Additional results.
SMILES	Env fusion inh	Rce1 inhib	eIF4H FP inh	UUG fidelity	CSC inhib	MT1-MMP act inh	MT1-MMP act inh RFP	PABP FP inh
NC(=O)c1ccc(NS(=O)(=O)c2ccccc2F)cc1	-35.6	i	-14.1	-15.5	-13.5	-1.0	1.9	-12.0
Cc1ccc([C@H]2C(C(=O)O)=CC[C@@H](c3cccc(C)c3)N2S(=O)(=O)c2ccc(C)cc2)cc1	-2.8	·	·	-3.3	9.9	0.2	3.3	·
O=c1[nH]c(=S)[nH]c2nc(-c3ccccc3)cnc12	3.2	i	·	·	7.1	5.3	10.8	·
CCOC(=O)c1ccccc1NC(=S)N1CCN(C(=O)c2ccco2)CC1	1.7	i	-5.2	-1.7	-5.5	-2.2	-0.3	8.6
O=C1Nc2ccc(NS(=O)(=O)c3cccs3)c3cccc1c23	·	·	-12.2	·	10.9	9.3	10.0	7.0
COc1cccc2cc(-c3ccccc3)oc12	-19.4	i	·	9.6	-1.6	-1.8	1.5	·
O=C(NCCc1ccncc1)Nc1ccccc1Cl	-18.7	i	-3.0	4.0	-1.9	-4.3	-0.4	-8.0
COc1ccccc1NS(=O)(=O)c1cccc(C(=O)NC2CCN(Cc3ccccc3)CC2)c1	·	i	·	-18.1	-2.5	-1.1	-25.7	·
Cc1sc2ncn(Cc3ccccc3F)c(=O)c2c1C	16.1	i	-5.1	·	-3.8	-0.4	3.5	3.2
COc1ccccc1CNc1ncnc2nc[nH]c12	21.4	i	-0.9	-7.4	-7.4	6.4	1.0	-7.4
c1ccc(SC23CC4CC(CC(C4)C2)C3)nc1	0.4	·	·	3.1	·	-2.1	5.9	·
Cc1cccc(CSCc2ccc(C(=O)NC3CCCC3)o2)c1	6.7	i	7.7	-5.3	0.4	1.7	2.7	-8.5
O=C(NCc1cccnc1)c1cc(S(=O)(=O)N2CCCCC2)ccc1Cl	-21.5	i	0.2	-5.7	-9.4	0.5	1.7	6.4
O=C(COc1cccc(C(F)(F)F)c1)NCC(c1ccco1)N1CCCCC1 (centres undefined)	16.1	i	·	·	1.2	-0.7	2.5	·
CC1=NCCN1CCNC(=O)Nc1ccc(C(C)(C)C)cc1	2.9	i	0.7	-12.9	-8.0	-2.1	4.3	5.7
COc1cc(Cl)c(CN2CCC(CCC(=O)NC3CC3)CC2)cc1OC	4.1	i	0.1	-8.2	-8.9	3.1	3.3	9.7
CCOC(=O)Cc1cnc(N)s1	-16.9	i	3.0	-14.3	1.5	11.2	10.0	14.0
CCn1c(SCC(=O)Nc2cccc(NC(C)=O)c2)nc2c([nH]c3ccccc32)c1=O	·	i	11.5	-14.2	-7.9	-0.6	3.9	16.1
Cc1ccc(OCC(=O)Nc2ccc(CN3CCCCC3)cc2)c(C)c1	6.3	i	-0.3	·	50.4	-2.5	-8.5	3.2
O=C(Nc1ccccc1F)Nc1ccccc1Br	-9.3	i	2.2	·	6.1	-0.6	-5.7	10.7

(list continues)
SMILES	Env fusion inh	Rce1 inhib	eIF4H FP inh	UUG fidelity	CSC inhib	MT1-MMP act inh	MT1-MMP act inh RFP	PABP FP inh
O=C1CC(N(CCc2ccccc2)C(=S)Nc2ccccc2)C(=O)N1c1ccc(Br)cc1 (centres undefined)	-4.4	i	4.3	-12.2	-6.0	-20.2	-35.0	8.1
CC1CCN(c2nc3ccccc3nc2C(C#N)C(=O)NC2CCCCC2)CC1 (centres undefined)	·	i	6.0	·	-2.5	·	·	-2.3
CCCn1c(N)c(N2CCCCC2)c(=O)n(CC(=O)Nc2ccc(OC(F)(F)F)cc2)c1=O	·	i	-6.6	·	-20.9	4.2	5.2	0.7
COc1ccccc1C(=O)OCCN=C1NS(=O)(=O)c2ccccc21	-8.6	·	-4.0	-9.7	-15.0	1.0	1.9	-2.7
CCOc1ccc(S(=O)(=O)NCCC(=O)NCc2ccco2)cc1	-6.5	i	-3.3	-11.0	8.5	4.4	7.6	-8.3
O=C1N(Cc2cccc(Cl)c2)C[C@@H]2C[C@@H](c3cccc4cccnc34)N3CCC[C@@]123	-12.3	i	42.6	·	-0.7	-16.1	-1.9	0.1
CCC(=O)c1ccc(OCC(=O)Nc2ccccc2C(=O)N2CCCCC2)cc1	9.2	i	·	-13.1	-1.4	2.0	-3.6	·
COc1ccccc1NC(=O)CSc1nnc(COc2ccccc2OC)n1C	12.5	i	7.9	·	-10.8	-0.5	3.2	4.1
Cc1ccc(N2C(=O)C3CCC(C)(C2=O)C3(C)C)cc1C (centres undefined)	-3.8	i	-8.8	·	33.4	2.4	3.4	3.9
CCOc1nc(C)ccc1-c1noc(C)n1	·	i	1.1	-14.2	1.1	0.1	-1.6	-3.1
O=C(NC1CCS(=O)(=O)C1)c1ccccc1Cl (centres undefined)	-28.1	·	·	-5.3	-8.9	-0.2	1.2	·
S=C(NCc1ccc(Cl)cc1)NC1CCN(Cc2ccccc2)CC1	-1.2	i	-4.3	·	-4.8	-1.1	-15.4	12.9
CC(C)N(C(=O)/C=C/c1cccc([N+](=O)[O-])c1)C(C)C	7.0	i	5.6	-4.4	-10.6	0.4	0.1	3.6
CCOc1ccc(CCNC(=O)COC(=O)c2cccc(S(=O)(=O)N3CCOCC3)c2)cc1OCC	5.7	i	·	4.3	-12.6	-1.0	5.4	·
COc1cc(OC)cc(-c2cc3nc(C)c(CCC(=O)NCc4ccccc4)c(C)n3n2)c1	?	i	0.0	-16.5	-5.7	0.3	-0.6	-5.5
Cc1ccc(N2CC(C(=O)Nc3ccccc3C(=O)NC3CCCCC3)CC2=O)cc1C (centres undefined)	-15.3	i	·	-4.7	-8.8	·	·	·
CC(=O)Nc1nnc(SCc2ccc(F)cc2)s1	-80.3	i	2.5	2.7	-1.5	3.6	1.3	1.1
COc1cc(C2NC(=O)NC(O)(C(F)(F)F)C2C(C)=O)cc(OC)c1OC (centres undefined)	·	i	-2.5	·	-10.3	-2.2	1.8	4.7
O=C(CSc1nnc(CNC(=O)c2ccccc2)o1)NCCc1ccccc1	-2.0	i	8.1	-5.2	-11.0	0.0	3.8	10.7
COc1ccc(NC(=O)CSc2nnnn2C2CCCC2)c(OC)c1	11.7	i	41.3	1.7	·	-0.9	-1.3	5.1

Carrying on:
SMILES	Env fusion inh	Rce1 inhib	eIF4H FP inh	UUG fidelity	CSC inhib	MT1-MMP act inh	MT1-MMP act inh RFP	PABP FP inh
COc1ccccc1/C=C/C(=O)N1CCc2cc(OC)c(OC)cc2C1C (centres undefined)	26.6	i	-8.1	-11.3	16.8	-7.5	0.9	-4.9
COc1ccc(-c2nnc(SC)n2C)cc1	-1.2	i	6.0	1.9	-12.6	0.7	4.7	0.8
CCc1cc(C(=O)Cc2ccc(F)cc2)c(O)cc1O	18.5	i	5.3	-8.7	41.4	-11.7	-14.9	-4.7
CCc1ccc(CN2CCC(n3nccc3NC(=O)c3ccc4c(c3)OCO4)CC2)cc1	6.8	i	3.3	0.0	-9.7	3.5	1.6	-3.9
COC(=O)COc1cccc2c(=O)n(CC(=O)NCCc3ccc(OC)c(OC)c3)ccc12	17.1	i	5.5	1.7	-1.2	0.6	3.0	-1.4
CC(=O)c1cc(CN2CCN(CCC(C)C)C(CCO)C2)cs1 (centres undefined)	-10.2	i	-4.2	-22.0	-2.3	-2.3	4.4	-0.6
Cc1cc(N/C(=N\S(=O)(=O)c2ccc(F)cc2F)c2ccccc2)no1	-29.4	i	-4.4	3.8	-13.0	4.0	8.6	6.6
CCOc1cc(/C=C2/C(=O)NN(c3cccc(Cl)c3)C2=O)ccc1O	0.1	i	39.9	-6.4	-4.7	-3.6	-2.5	-6.9
CSCc1nnc(NC(=O)c2ccc(S(=O)(=O)N(C)C)cc2)o1	-0.2	i	-3.1	·	-5.9	-1.3	2.5	-11.8
O=C(Cc1ccccc1[N+](=O)[O-])NCc1ccco1	-11.7	i	0.1	·	-1.7	1.3	4.2	-0.8

A portion from the list above:
SMILES	Env fusion inh	Rce1 inhib	eIF4H FP inh	UUG fidelity	CSC inhib	MT1-MMP act inh	MT1-MMP act inh RFP	PABP FP inh
CSCc1nnc(NC(=O)c2ccc(S(=O)(=O)N(C)C)cc2)o1	-0.2	i	-3.1	·	-5.9	-1.3	2.5	-11.8
O=C(Cc1ccccc1[N+](=O)[O-])NCc1ccco1	-11.7	i	0.1	·	-1.7	1.3	4.2	-0.8
